TRPML1 blocker: human mucolipin-1 channel inhibition. Q9GZU1. TRPML1-inducible cells, Ca2+ dye fluorescence, FDSS; active compounds read low; inhibition of EC80 agonist-evoked calcium signal. activity change, negative = inhibition, % (test concentration not listed). 0.02% of 390,000 active. AID 624415; in the data active means activity change below about -50%; inconclusive means about -30% to -50%; inactive means above about -30%;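 note: stimulus is agonist 54-4 at its EC80 concentration; % is set by controls: 0 for no effect and ±100 for the full control effect; compound concentration not given in the record; the text of the record puts the active cut at -80%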
Target sequence (Q9GZU1 whole entry, looked up): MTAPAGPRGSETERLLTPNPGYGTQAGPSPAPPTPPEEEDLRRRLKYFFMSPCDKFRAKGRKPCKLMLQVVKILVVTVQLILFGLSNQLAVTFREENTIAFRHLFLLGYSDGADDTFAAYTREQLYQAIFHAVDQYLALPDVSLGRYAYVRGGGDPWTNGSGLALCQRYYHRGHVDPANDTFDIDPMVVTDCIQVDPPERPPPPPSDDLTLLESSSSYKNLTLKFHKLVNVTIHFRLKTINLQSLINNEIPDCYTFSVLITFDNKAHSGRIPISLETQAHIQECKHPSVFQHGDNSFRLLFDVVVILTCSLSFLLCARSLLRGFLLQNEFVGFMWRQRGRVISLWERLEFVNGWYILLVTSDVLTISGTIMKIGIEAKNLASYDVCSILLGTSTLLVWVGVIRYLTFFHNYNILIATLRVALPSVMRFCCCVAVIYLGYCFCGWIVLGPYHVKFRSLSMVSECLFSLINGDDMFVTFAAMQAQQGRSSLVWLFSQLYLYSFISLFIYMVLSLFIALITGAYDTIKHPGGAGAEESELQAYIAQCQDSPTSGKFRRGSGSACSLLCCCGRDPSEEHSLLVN
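TRPML1-DL cells, Tet-induced overnight (~16 h, 37 °C) at 1,500 cells/well, were loaded with Ca8 no-wash dye plus quencher for 45-90 min at room temperature. Compounds were pinned during FDSS kinetic reading; agonist 54-4 at EC80 (4 uM final) then added.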
PINK1 expr mod: modulators of PINK1 expression; PINK1 immunofluorescence, high-content cytometry, 24 h; Potency, µM (titrated, usually from 76.6 µM), for the others: top-dose activation (PINK1 increase), hits mostly activators; 0.2% of 410,000 active; active = well fitted activation curve with a large enough effect; inconclusive = small, poorly fitted or top-dose-only effect; inactive = flat fitted curve, though single readings scatter; cell line not stated here;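 note: potency is the fitted concentration of half-maximal effect; % of control where 0% means no effect; nearly all actives have a fitted effect of over 65% in size; a mitochondrial uncoupler was the plate control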
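Cells are seeded, rested 12 hours, then given compound at five concentrations or DMSO for 24 hours. After fixation, blocking and antibody staining, PINK1 amount and mitochondrial localization are scored; CCCP serves as control.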
D2 potentiator: human D2 receptor positive allosteric modulation | DiscoveRx D2 beta-arrestin cells, luminescence, 90 min; 100% = 57 uM dopamine signal | potentiation, % (no concentration beside the values) | 0.23% of 360,000 active | AID 624464; active = potentiation of 50% or more; inconclusive = 30% to 50%; inactive = 30% or less;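 note: compound concentration not given in the record; tested on top of an EC20 dose of dopamine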
Target sequence (P14416 whole entry, looked up): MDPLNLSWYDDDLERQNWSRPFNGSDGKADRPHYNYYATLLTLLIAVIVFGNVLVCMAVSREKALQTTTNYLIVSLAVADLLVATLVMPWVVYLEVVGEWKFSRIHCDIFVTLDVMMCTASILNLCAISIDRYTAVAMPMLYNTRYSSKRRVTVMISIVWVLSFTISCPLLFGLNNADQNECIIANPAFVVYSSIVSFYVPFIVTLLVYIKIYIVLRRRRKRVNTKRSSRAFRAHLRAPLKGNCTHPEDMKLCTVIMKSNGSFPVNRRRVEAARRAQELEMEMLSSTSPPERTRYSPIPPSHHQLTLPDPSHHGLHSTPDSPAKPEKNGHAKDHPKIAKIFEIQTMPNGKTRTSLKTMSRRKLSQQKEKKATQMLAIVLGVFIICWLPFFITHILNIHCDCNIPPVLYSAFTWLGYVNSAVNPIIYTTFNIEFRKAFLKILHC
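PathHunter beta-arrestin assay in DiscoveRx D2 cells. Compounds were added with an EC20 of dopamine (50 nM final) for 90 min at 37 deg C. Luminescence was read 1 h after detection reagent, with 57 uM dopamine as the EC100 control.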
TRPML1 agonist: activates the human TRPML1 channel | activation, % (test concentration not listed) | 0.12% of 410,000 active | TRPML1-expressing cells, Ca2+ dye fluorescence, FDSS; host cell line not named in the record; reference of the full effect not given here; in the data active = activation above about 50%; inconclusive = about 30% to 50%; inactive = below about 30%; note: 0% is about no effect; the text of the record puts the active cut at 80%
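Kinetic FDSS Ca2+ read in Tet-induced TRPML1-DL cells (ABD Ca8 dye plus quencher, 45-90 min RT loading): baseline, then compound, then 110 s agonist window; EC80 agonist 54-4 at 4uM final added afterwards for a 110 s antagonist window.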
Six1-Eya2 inh: Six1/Eya2 interaction inhibition | Q15475+O00167 | AlphaScreen GST-Six1/His-Eya2 binding, biochemical; active compounds read low; control for the full effect not named in the record | activity change, % (no concentration beside the values) | 0.56% of 360,000 active | AID 651725; in the data active = activity change below about -65%; inconclusive = about -30% to -65%; inactive = above about -30%; note: % is set by controls: 0 for no effect and ±100 for the full control effect
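AlphaScreen with GST-Six1 and His-Eya2 (5X mix: 250 nM and 500 nM), glutathione donor and nickel acceptor beads; buffer 50 mM Tris pH 8.0, 300 mM NaCl, 1 mM TCEP; 1 h at 37 C in the dark.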
D2 agonist: activates the human D2 dopamine receptor; P14416; DiscoveRx PathHunter D2 beta-arrestin, luminescence, 90 min; 100% = 57 uM dopamine signal; activation, % (no concentration beside the values); 0.084% of 360,000 active; in the data active = activation above about 40%; inconclusive = about 15% to 40%; inactive = below about 15%; note: compound concentration not given in the record; the text of the record calls up to 30% inactive
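DiscoveRx PathHunter D2 beta-arrestin cells (2,100/well) attached overnight, then compound-stimulated 90 min at 37 C in HBSS/10 mM HEPES/0.1% Tween-20 buffer; beta-galactosidase complementation read by luminescence after 1 h at ambient temperature. Dopamine 57 uM final (EC100) as control.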
An asterisk follows results filed as active; ? = inconclusive; · = not tested or not shown; [ ] = dose if it differs, or a comment.

SMILES	TRPML1 blocker	PINK1 expr mod	D2 potentiator	TRPML1 agonist	Six1-Eya2 inh	D2 agonist
CCOc1cc(C)nc(N2CCC(C(=O)NCC3CCCO3)CC2)n1 (configuration not stated)	-21	?	-2	-0.4	-5	-2.3
O=C(COC(=O)c1ccc(S(=O)(=O)N2CCc3ccccc3C2)cc1)NC(=O)NCc1ccco1	7	-1.0%	0	-0.3	-4	-5.5
COc1cccc(NC(=O)CCC2CCN(C(=O)c3ccc(C(C)=O)s3)CC2)c1	9	0.4%	-6	0.2	-2	-1.0
COc1ccccc1CNC(=O)CCC1N=C2c3ccccc3N=C(SCC(=O)NCCc3ccccc3)N2C1=O (configuration not stated)	-30	-1.1%	·	0.2	·	·
COc1ccccc1NS(=O)(=O)c1ccc(/C=C/C(=O)N2CCN(C(C)=O)CC2)cc1	-5	2.5%	-2	0.9	4	1.3
Clc1ccc(CO/N=C/c2cccs2)cc1	0	-0.5%	-2	-0.5	6	-2.1
CCN(CC(=O)NCCc1ccc(Cl)cc1)Cc1nc2ccccc2c(=O)[nH]1	13	-1.0%	-1	-0.1	-4	0.4
COc1ccccc1S(=O)(=O)Cc1ccc(C(=O)NC2CC2)o1	-12	-1.2%	-4	-0.3	7	6.8
Cn1c(=O)c2c(ncn2CC(=O)OCC(=O)Nc2ccc(Cl)cc2Cl)n(C)c1=O	35	3.5%	-4	-0.5	2	0.0
CC(C(=O)N1c2ccc(F)cc2CCC1C)N1C(=O)c2ccccc2C1=O (configuration not stated)	2	-1.3%	-19	-0.4	-1	-3.7
CC12CCCc3c(O)cc(=O)n(c31)-c1ccccc12 (configuration not stated)	11	1.0%	-5	0.9	2	-0.7
CCCCC(=O)N1CCN(c2nc3c(C)c(C)ccc3s2)CC1	11	1.8%	·	0.4	·	·
CN(CC(=O)NCCc1ccc(S(N)(=O)=O)cc1)CC(=O)Nc1cccc(F)c1	-13	-4.5%	5	0.8	5	-3.1
CCCCOc1c(Cl)cc(C(=O)N(Cc2ccc(C)o2)C2CCS(=O)(=O)C2)cc1Cl (configuration not stated)	2	4.7%	·	1.7	·	·
COc1cc2c(cc1OC)C(c1cccs1)N(C(=O)c1cccc(S(=O)(=O)N(C)C)c1)CC2 (configuration not stated)	-12	0.1%	13	2.3	4	4.5
C=CCSc1nc2ccccc2c(=O)n1Cc1ccccc1	33	-0.8%	-1	4.3	28	-0.9
COc1ccc(N2CC(NS(=O)(=O)c3ccc(F)cc3)CC2=O)cc1 (configuration not stated)	-12	0.6%	3	1.5	-7	-0.8
O=C(NCCCN1CCOCC1)c1ccccc1NS(=O)(=O)c1ccc(Br)cc1	33	1.7%	-7	0.2	6	-1.5
COc1ccc(N=c2scc(-c3ccc(OC)cc3)n2CCO)cc1	24	-1.0%	3	-0.2	?	-1.5
COc1ccc(-n2nnnc2C(CCc2ccccc2)N2CCN(C/C=C/c3ccccc3)CC2)cc1 (configuration not stated)	·	0.9%	-16	0.0	-22	-4.0
O=[N+]([O-])c1cccc2nc(-c3ccccc3)c(-c3ccccc3)nc12	-10	-0.5%	-4	-0.5	?	-0.8
CCCc1cc(=O)[nH]c(SCC(N)=O)n1	0	-1.6%	-7	-0.6	-1	-2.7
O=C1c2ccccc2C(=O)N1CCC1=CCCCC1	-1	0.0%	-8	-1.1	28	-3.0
Cc1ccsc1C1C=C(c2cccc(Br)c2)Nc2ncnn21 (configuration not stated)	-10	1.6%	-19	4.6	-3	-2.9
O=C1NC2(CCCCCC2)C(=O)N1Cc1ccccc1	3	2.0%	-2	0.4	9	3.0
O=C(CN1C(=O)c2ccccc2C1=O)Nc1ccccc1N1CCOCC1	0	-0.3%	-3	0.7	-1	4.4
O=[N+]([O-])c1ccc2nonc2c1Nc1ccccc1	18	0.4%	27	-0.6	-26	8.4
CCOC(=O)c1ccc(NC(=O)C2CCCN(S(=O)(=O)c3cnc[nH]3)C2)cc1 (configuration not stated)	3	1.5%	-8	0.1	6	-2.4
CS(=O)(=O)N1CCC(C(=O)N2CCN(Cc3ccccc3)CC2)CC1	11	-0.9%	-1	-0.1	-12	-2.1
C=CCn1c(O)c(N=Nc2ccccc2C)c2ccccc21	3	-1.0%	-18	1.3	6	-1.3
S=c1[nH]nc(-c2ccc3ccccc3n2)n1-c1ccc2c(c1)OCCO2	1	-1.5%	-9	-0.7	-9	-0.7
COc1ccc(OC)c2c(N3CC(C)OC(C)C3)cc(C(F)(F)F)nc12 (configuration not stated)	16	-2.9%	-11	0.2	3	-1.8
CCC(=O)Nc1ccc2nc(SCc3ccccc3)sc2c1	6	-0.3%	·	0.2	·	·
O=C(CCn1cnc2onc(-c3ccc(F)cc3)c2c1=O)Nc1ccc(F)c(Cl)c1	13	5.1%	·	0.7	·	·
Cc1ccc(N(C)S(=O)(=O)c2cccc(C(=O)Nc3ccc(N4CCOCC4)cc3)c2)cc1	-5	7.1%	-19	0.4	-15	-1.8
Cc1ccc(NC(=O)CSCC(=O)NCCc2ccccc2)cc1	-6	2.2%	-3	-0.7	0	-5.5
Cc1cccc(CN2C(=O)/C(=C\c3ccc(C(=O)NCCN4CCOCC4)cc3)Sc3ccccc32)c1	1	1.5%	5	-1.1	-3	-3.0
Cc1cc(C)c2c(Cn3ccnc3)cc(=O)oc2c1	19	0.2%	-9	4.7	6	-3.3
CCN(CC)C(=O)c1cc(Cl)ccc1NC(=O)c1ccco1	·	-0.1%	-5	·	0	-5.0
Cc1c(C(=O)N2CCC(Cc3ccccc3)CC2)cccc1[N+](=O)[O-]	-14	-2.1%	-3	0.5	-12	-2.4

Compound profiles (already shown). Order of screens: TRPML1 blocker, PINK1 expr mod, D2 potentiator, TRPML1 agonist, Six1-Eya2 inh, D2 agonist
O=C(CN1C(=O)c2ccccc2C1=O)Nc1ccccc1N1CCOCC1 is listed with 0, -0.3%, -3, 0.7, -1, 4.4
C=CCn1c(O)c(N=Nc2ccccc2C)c2ccccc21 is listed with 3, -1.0%, -18, 1.3, 6, -1.3

Following part:
SMILES	TRPML1 blocker	PINK1 expr mod	D2 potentiator	TRPML1 agonist	Six1-Eya2 inh	D2 agonist
CCCOc1ccc(-c2nnc(-c3ccncc3)o2)cc1	10	-0.5%	1	0.2	-14	-1.4
COc1cccc(/C(O)=C2/C(=O)C(=O)N(CCN(C)C)C2c2ccc(Br)cc2)c1 (configuration not stated)	-1	-1.3%	-8	0.4	5	-4.1
Cc1ccc2c(c1)c1nnc(SCC(=O)Nc3ccccc3C(F)(F)F)nc1n2CC(=O)O	4	10%	-3	-0.4	-29	-3.6
COc1ccc(S(=O)(=O)N2CCC(C(=O)NCCC(=O)Nc3ccc(Cl)cc3)CC2)cc1	-14	2.9%	-10	1.1	0	0.7
COc1ccc(S(=O)(=O)N(C)CC(=O)NCCC2=CCCCC2)cc1OC	-15	5.6%[38.3 µM]	-16	-0.7	0	-2.8
CC(C)CN(C(=O)CN1CCN(c2ccc([N+](=O)[O-])cc2)CC1)c1c(N)n(CC(C)C)c(=O)[nH]c1=O	11	-0.8%	-1	0.0	0	-4.2
CC(=O)Nc1cccc(NC(=O)c2cc(-c3cccnc3)nc3ccc(Cl)cc23)c1	1	0.0%	4	0.9	11	?
Cc1ccc2cc(C=C(C#N)C#N)c(N3CCCCC3)nc2c1	-11	-0.8%[38.3 µM]	-12	0.2	-1	-4.1
CCn1ccnc1CN1CCCC(C(=O)c2ccc3cc(OC)ccc3c2)C1 (configuration not stated)	-15	5.3%	-18	1.1	-19	-6.1
O=Cc1cccn1-c1ncc(Br)cn1	-1	-1.1%	-9	-0.4	18	-2.2
COc1ccccc1NS(=O)(=O)c1cc(NC(C)=O)ccc1N1CCCCC1	-5	1.2%	-41	-0.4	-19	-4.5
O=C(COc1ccccc1Cl)NCCCNC(=O)c1cccnc1	8	0.7%	-4	0.9	4	5.0
COc1ccc(CCNS(=O)(=O)c2ccc3c(c2)NC(=O)CS3)cc1OC	-8	-0.4%	-5	-0.2	-2	0.4
CC1(C(=O)NS(C)(=O)=O)CCN1C(=O)C/C=C/c1ccccc1 (configuration not stated)	·	1.0%	7	-0.3	3	-4.2
O=C(NNC(=O)c1ccncc1)c1ccccc1	14	-2.2%	-1	0.4	12	2.0
CC(Nc1c([N+](=O)[O-])c(=O)oc2ccccc12)C(Cl)c1ccccc1 (configuration not stated)	-6	-1.7%	-32	0.6	-21	9.6
Clc1ncccc1-c1nnn(-c2ccccc2)n1	-11	-1.4%	-9	-0.6	12	1.3
COc1cc(C2NC(=O)NC(C)=C2C(=O)OC2CCCC(C)C2)cc(Br)c1O (configuration not stated)	-1	1.1%	1	-0.3	-4	10
COCCn1cnc2c1c(=O)n(CC#N)c(=O)n2Cc1ccccc1	15	0.7%	1	-0.1	7	1.4
O=C(NN=Cc1cc(Cl)ccc1[N+](=O)[O-])c1ccco1	-2	0.6%	4	1.4	-11	13
O=C(CCc1nc2ccccc2c(=O)[nH]1)OCC(=O)c1ccc(C2CCCCC2)cc1	5	-0.2%	-29	-0.2	-8	-2.6
CCOC(=O)c1ccccc1NC(=O)N1CCCn2nc(C)cc21	-11	-0.8%	·	0.9	·	·
COc1ccc(O)c(-c2cc(-c3cccs3)[nH]n2)c1	-10	1.2%	-1	-0.5	-19	-0.1
CC(Oc1ccccc1)C(=O)Nc1cccc([N+](=O)[O-])c1 (configuration not stated)	5	0.3%	-12	-0.7	10	-0.1
O=C(CC1OC(=O)c2ccccc21)Nc1cc(Cl)ccc1N1CCOCC1 (configuration not stated)	2	-2.3%	-1	0.6	0	-4.9
CC(=O)Nc1ccc(Nc2nc(-c3cc4ccccc4oc3=O)cs2)cc1	9	?	2	-0.3	-21	9.8
Cc1cccc(CC(=O)Nc2ccon2)c1	6	4.0%	0	1.0	0	-3.1
CCc1nnc(NC(=O)c2ccc(F)c(S(=O)(=O)N3CCCCC3)c2)s1	-5	2.2%	-5	0.9	-8	-3.5
COc1cc([N+](=O)[O-])ccc1NC(=O)NCC1CCN(Cc2ccc(Cl)cc2)CC1	13	0.2%	-36	3.7	-14	-0.6
COc1cccc(C(=O)NNC(=S)NC2CCCCC2)c1	-10	1.7%	-29	-1.3	-2	-7.8
COc1ccc(S(=O)(=O)N(Cc2nc(-c3ccc(Cl)cc3)no2)C2CCCCC2)cc1	51	3.8%	·	3.0	·	·
COc1cccc(Nc2nc(-c3sc(NC(=O)CC(C)C)nc3C)cs2)c1	-2	-0.3%	-2	-0.8	-9	1.2

Looked up above.
PINK1 expr mod, O=C(CC1OC(=O)c2ccccc21)Nc1cc(Cl)ccc1N1CCOCC1 (configuration not stated) stands at -2.3%
D2 potentiator, Cc1cccc(CC(=O)Nc2ccon2)c1 stands at 0
TRPML1 blocker, CCOC(=O)c1ccccc1NC(=O)N1CCCn2nc(C)cc21 stands at -11
TRPML1 blocker, COc1ccc(S(=O)(=O)N(Cc2nc(-c3ccc(Cl)cc3)no2)C2CCCCC2)cc1 stands at 51

An unsorted share of the library. Share with any hit: about 1%.
